Compound activity: PubChem BioAssay, several laboratories
WNV NS2B-NS3 inh = inhibitors of WNV NS2B-NS3 protease, primary screen, biochemical, fluorogenic substrate; Genome polyprotein (West Nile virus), P06935; fluorogenic substrate Ex360/Em465; active compounds read low; z-score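 (tested at a level between 10 and 100 µM)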; hit rate 0.18% among 65,000; AID 577, 2007;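 active = z-score at -3 or under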;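 also: score is relative to mean and spread of the compound wells of a plate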
Target sequence (P06935 1371-1501 limits assumed): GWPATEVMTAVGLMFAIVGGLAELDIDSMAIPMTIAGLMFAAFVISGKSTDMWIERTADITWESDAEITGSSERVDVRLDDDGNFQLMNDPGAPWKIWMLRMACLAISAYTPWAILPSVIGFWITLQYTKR
Target sequence (P06935 1502-1679 limits assumed): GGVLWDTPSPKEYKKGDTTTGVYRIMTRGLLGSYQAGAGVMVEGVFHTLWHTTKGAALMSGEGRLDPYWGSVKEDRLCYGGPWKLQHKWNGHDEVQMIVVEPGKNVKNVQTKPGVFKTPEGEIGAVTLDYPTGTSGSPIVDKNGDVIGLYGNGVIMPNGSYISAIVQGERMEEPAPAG
MT1-MMP promoter = inhibitors of MT1-MMP promoter transcription, cell-based, luciferase reporter, luminescence (AID 618); hit rate 0.62% among 87,000; MT1-MMP promoter luciferase reporter cells, luminescence; calls from a first round at 10 µM; hits with a dose series show EC50 in µM;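 active = over half of the reporter light lost at 10 µM or EC50 under 50 µM; inactive = the rest and hits that failed the dose series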;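 also: actives suppress MT1-MMP promoter-driven transcription so potencies describe inhibitors; HT1080 fibrosarcoma cells; overnight exposure; toxic or luciferase-blocking compounds were not removed from the actives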
Hsc70 ATP site = Hsc70 inhibitors, probe displacement, primary screen, biochemical, fluorescence polarization (AID 568) | Heat shock cognate 71 kDa protein (Homo sapiens) | Hsc70 fluorescence polarization, probe displacement; higher % means a stronger effect; strong numbers were not always called active | displacement, % at 20 µM, or IC50 in µM where a hit was titrated | 83,000 tested, under 10 active;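 active = displacement above 50% without optical interference and an IC50 on retest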;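 also: ATPase domain with a fluorescein-tagged ATP probe; 0% = vehicle and 100% = excess ADP; read after one hour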
* = called active by the depositor; i = inactive; · = not tested or not shown. This is a subset, so the mix of outcomes need not match the whole.

structure	MT1-MMP promoter	WNV NS2B-NS3 inh	Hsc70 ATP site
COCCOCC(O)CN1CCN(c2ccc(C)cc2)CC1 (stereo unspecified)	i	0.47	-5.6%
COc1ccc(C)cc1S(=O)(=O)N(C)CC(=O)N1CCC(C)CC1	i	·	3.3%
O=C1OC(c2ccccc2)=C/C1=C/N1CCCCC1	i	-1.48	-2.1%
Cc1cc(C)nc(SC(C)C(=O)Nc2ccc(S(N)(=O)=O)cc2)n1 (stereo unspecified)	i	1.59	-6.1%
Cc1cc(N=CC2=C(O)CC(C)(C)CC2=O)no1	i	-0.44	-10.7%
Cc1cc(=O)oc2cc(OCC(=O)NCc3cccnc3)ccc12	i	-0.95	-4.7%
CCOc1cc(/C=C\c2[nH]c(=O)[nH]c(=O)c2[N+](=O)[O-])ccc1OC(C)CC (stereo unspecified)	i	·	-137.4%
CCOC(=O)Cc1csc(NC(=O)c2cccc(OC)c2)n1	i	-0.24	1.5%
CCCC1C(c2ccc(OC)cc2)C(C#N)(C#N)C2(C#N)CC1(N)NC2=O (stereo unspecified)	i	0.32	0.2%
Cc1ccc(C(C(=O)NC2CCCC2)N2CCCCC2)cc1 (stereo unspecified)	i	-0.2	0.1%
CCOc1ccc(CN2CCN(C(=O)c3ccccc3)CC2)cc1	i	0.61	-4.3%
C=CCn1c(COc2ccc(CC)cc2)nnc1SC/C(O)=C(\C#N)c1nc2ccccc2[nH]1	i	0.75	-20.3%
CCc1c(C)nc(SCC(=O)Nc2ccc(Br)cc2)[nH]c1=O	i	-0.85	2.0%
Cc1ccc(S(=O)(=O)N2CCN(C(=O)CSc3nc4ccccc4o3)C2)cc1	i	0.77	6.8%
CCOCCOC(=O)C1=C(C)N(C)C(=O)NC1c1ccccc1F (stereo unspecified)	i	0.03	-1.7%
COc1cccc(OC)c1Oc1ccc(C(F)(F)F)cn1	i	0.19	-3.2%
Cc1cc(NCCN2CCOCC2)n2c(nc3ccccc32)c1C#N	i	0.57	-5.2%
Fc1ccc2[nH]c3c(NCCN4CCOCC4)ncnc3c2c1	i	·	-3.1%
CCc1cc2c(=O)c(-c3nc4ccccc4n3C)coc2c(CN2CCN(C)CC2)c1O	i	1.27	5.5%
CCS(=O)(=O)N1CCCC(C(=O)NCc2cccnc2)C1 (stereo unspecified)	i	1.09	-4.2%
CCOc1cc(C(=O)N(C)Cc2cc3cc(OC)ccc3[nH]c2=O)cc(OCC)c1OCC	i	-0.11	5.7%
O=C1CC(C(=O)N(c2cccc(F)c2)C(C(=O)NC2CCCC2)c2ccccn2)CS1 (stereo unspecified)	i	-0.46	3.7%
O=C(O)C1CCN(S(=O)(=O)c2ccc(Oc3ccccc3)cc2)CC1	i	-0.64	4.2%
CCc1nnc(NC(=O)c2c(O)c3c([nH]c2=O)CCCC3)s1	i	-0.45	3.9%
CN(C)CCNc1ncnc2ccccc12	i	-0.53	0.2%
CC(C)(CO)NCc1ccccc1OCC(=O)Nc1ccccc1	i	-0.57	-0.3%
CCN(CC)CCN1C(=O)C(=O)/C(=C(/O)c2ccccc2)C1c1ccccc1F (stereo unspecified)	i	0.27	1.3%
CCN(CC)CCN1C(=O)c2ccccc2NC1c1cc(OC)c(OC)c(OC)c1 (stereo unspecified)	i	-0.3	2.3%
CC(C)c1ccc(NC(=O)C2CCCCC2C(=O)O)cc1 (stereo unspecified)	i	-0.42	6.6%
CCOC(=O)Cn1c(CN2CCOCC2)nc2c1c(=O)n(C)c(=O)n2C	i	-1.43	-4.8%
CCOC(=O)C1CCN(C(=O)CSc2ccc(Cl)cc2)CC1	i	·	-2.2%
CC(=O)N1CCc2cc3nc(C)cc(C)c3cc21	i	-0.03	-2.3%
O=C(COC(=O)CNS(=O)(=O)c1ccccc1)Nc1ccc(Cl)cn1	i	·	-2.3%
O=C1CC(c2ccc(S(=O)(=O)NCc3ccccc3)cc2)CN1 (stereo unspecified)	i	0.06	0.4%
CCCCn1nnnc1NCc1cccs1	i	-0.35	1.6%
O=C(/C(=C/O)N=Nc1ccccc1)c1ccncc1	i	·	5.9%
CCOC(=O)N1CCN(C(=O)c2ccc3nc(N4CCCCC4)sc3c2)CC1	i	-2.77	5.0%
O=C(CN(Cc1cccs1)C(=O)CNS(=O)(=O)c1ccc(F)cc1)NCc1ccco1	i	-1.62	-3.2%
NCC(O)COCCC12CC3CC(CC(C3)C1)C2 (stereo unspecified)	i	-0.84	-2.2%
CN(C)c1ccc(/C(=N\O)C(F)(F)F)cc1	i	-0.76	12.6%
Cn1ccnc1SCCC#N	i	0.09	0.0%
CCC(=O)N1CCc2cc(S(=O)(=O)NC(C(=O)NCc3ccccc3)C(C)C)ccc21 (stereo unspecified)	i	-0.92	2.8%
COc1ccccc1NC(=O)CC1COc2ccccc2O1 (stereo unspecified)	i	·	-0.1%
CCN(CCO)C(=O)C12CCC(C)(C(=O)C1)C2(C)C (stereo unspecified)	i	-0.61	-3.2%
CN(C)C(=O)CN(C)S(=O)(=O)c1ccc(Cl)cc1	i	-0.02	5.2%
CCn1c(C)c(C(C)=O)c(N2CCCCC2)nc1=S	i	0.5	3.8%
CCCCCN(C(=O)NC(=O)Nn1cnnc1)S(C)(=O)=O	i	-0.62	1.8%
COC(=O)c1ccc(N)cc1O	i	·	2.7%
Cc1ccccc1-c1ccc(=O)n(CC(=O)Nc2ccc(N3CCOCC3)cc2)n1	i	0.83	-6.0%
CC(=O)Nc1nc(C)nc(C)c1C(C)=O	i	-1.04	-7.1%
COc1cc(CC(NC(C)=O)C(=O)NC2CCN(c3nc(C)cc(C)c3C#N)CC2)cc(OC)c1 (stereo unspecified)	i	0.02	-6.6%
CC(C)N(c1ccccc1)c1ccc(NC(=O)C2CCCO2)cc1 (stereo unspecified)	i	-0.38	-0.1%
COc1ccc(OC)c(S(=O)(=O)N2CCC(C(=O)Nc3ccc(C)c(C)c3)CC2)c1	i	1.1	1.6%
O=C(NCC1CCCO1)C1CCC(=O)N1Cc1ccccc1Cl (stereo unspecified)	i	1.18	-1.6%
CC(=O)NCC(=O)OCC(=O)c1ccc(C)c(C)c1	i	0.33	3.9%
CCO/C=C1/C(=O)N(CC)c2ccccc21	i	-0.89	1.6%
O=C1c2cccc3c(N4CCCCC4)ccc(c23)C(=O)N1c1ccccn1	i	-0.14	22.5%
CCCc1cc(C(=O)Nc2cc(Br)ccc2O)no1	i	-0.06	0.5%
CCOc1ccccc1N1CCN(C(=O)c2c(C)noc2C)CC1	i	-0.73	-3.8%
COC(=O)Sc1nc(N2CCOCC2)c2c(c1C#N)CC(C)(C)OC2	i	-0.29	-0.1%

Further records:
structure	MT1-MMP promoter	WNV NS2B-NS3 inh	Hsc70 ATP site
CN1C(=O)SC(Nc2cccc3ccccc23)C1=O (stereo unspecified)	i	·	-3.5%
Cn1c(=O)c2cn(-c3ccccc3)cc2n(C)c1=O	i	·	3.7%
Cc1nc2c(C(=O)NCCc3ccccc3Cl)c[nH]n2c(=O)c1Cl	i	·	5.3%
CCOC(=O)N1CCN(CC(O)COC(CC)c2ccccc2)CC1 (stereo unspecified)	i	-0.69	3.6%
Cc1ccc(S(=O)(=O)Nc2cc(C(=O)NCCN3CCCC3)ccc2N2CCCCC2)cc1	i	-1.33	-3.0%
COc1ccccc1N1CSC2=C(C#N)C(c3ccc(SC)cc3)CC(=O)N2C1 (stereo unspecified)	i	-0.33	-6.0%
C=CCNC(=O)c1ccc2c(c1)nnn2C	i	-1.28	-8.5%
COc1cccc(NC(=O)CSc2nnc(-c3cccc(OC(C)C)c3)n2N)c1	i	-0.48	-1.0%
Cc1ccc(CNC(=O)CN2C(=O)C3(OCCCO3)c3ccccc32)cc1	i	0.29	-0.9%
CN1CCN(c2ccccc2NS(=O)(=O)c2ccc3c(c2)CCN3C(=O)C2CCC2)CC1	i	1.3	-4.4%
O=C(c1cc2ccccc2oc1=O)N(Cc1ccccc1)CC1CCCO1 (stereo unspecified)	i	·	-3.3%
Nc1nc(CN2CCN(c3ccccc3)CC2)nc(N2CCCc3ccccc32)n1	i	0.38	-0.3%
CC(=O)c1c(C)[nH]c(C(=O)CSc2nc3ccccc3n2C)c1C	i	·	-10.7%
CCN(CC)CCCn1c(C)cc2c(c1=O)C(c1ccccc1)C(C#N)=C(N)O2 (stereo unspecified)	i	-0.71	-1.2%
O=C(CCn1nnc(-c2cccs2)n1)NCc1ccccc1Cl	i	-0.78	0.2%
CC(=O)c1c(C)oc2ccc(O)c(CN3CCOCC3)c12	i	·	1.5%
COc1nc(-c2ccccc2)ccc1-c1noc(COc2ccccc2)n1	i	0.04	-29.9%
C=CCn1c(SCC(=O)/C(C#N)=C(\C)N)nc2sc(CC)cc2c1=O	i	-0.11	2.5%
CN(CC(=O)Nc1ccc(F)c(F)c1)S(=O)(=O)c1cccc2nsnc12	i	0.27	3.8%
O=C(NCc1ccco1)c1ccc(N2CCCC2=O)cc1	i	-0.000474	3.0%

Brought forward from above: 6 compounds, followed by the next part.
structure	MT1-MMP promoter	WNV NS2B-NS3 inh	Hsc70 ATP site
O=C(CCn1nnc(-c2cccs2)n1)NCc1ccccc1Cl	i	-0.78	0.2%
CC(=O)c1c(C)oc2ccc(O)c(CN3CCOCC3)c12	i	·	1.5%
COc1nc(-c2ccccc2)ccc1-c1noc(COc2ccccc2)n1	i	0.04	-29.9%
C=CCn1c(SCC(=O)/C(C#N)=C(\C)N)nc2sc(CC)cc2c1=O	i	-0.11	2.5%
CN(CC(=O)Nc1ccc(F)c(F)c1)S(=O)(=O)c1cccc2nsnc12	i	0.27	3.8%
O=C(NCc1ccco1)c1ccc(N2CCCC2=O)cc1	i	-0.000474	3.0%
CCOC(=O)N1CCN(C(=O)CN(C2CCCCC2)S(C)(=O)=O)CC1	i	-1.44	4.3%
C=CCn1c(SCc2nc3ccccc3[nH]2)nnc1-c1ccc(OC)cc1	i	·	7.4%
CCn1nnnc1SCC(=O)Nc1sc(C)c(C)c1C#N	i	·	0.2%
C=CCSc1ncccc1C(=O)O	i	1.22	-0.1%
CCOC(=O)c1cnn(CCOC(=O)c2cccs2)c1NC(=O)c1cccs1	i	0.15	-1.2%
Cn1c(=O)[nH]c(=O)c2c1nc(N1CCN(CCO)CC1)n2CCSc1nc2ccccc2s1	i	0.89	0.2%
CC(=O)Nc1cccc2c1C(=O)NC2=O	i	-0.00981	2.3%
CCOC(=O)N1CCC(N2CC34C=CC(O3)C(C(=O)O)C4C2=O)CC1 (stereo unspecified)	i	-0.2	-2.2%
O=c1[nH]c2cc3c(cc2cc1CN(CC1CCCO1)S(=O)(=O)c1ccc(Cl)cc1)OCCO3 (stereo unspecified)	i	-1.51	-3.2%
O=C(CCCC(=O)N(CC(=O)NC1CCCC1)Cc1ccccc1Cl)Nc1ccccn1	i	-0.61	-1.0%
COc1ccc(/C(N)=C/C(=O)C(C)(C)C)cc1	i	-0.91	2.2%
CCOC(=O)CN1C(=O)C(O)(c2c(C)[nH]c3ccccc23)c2ccccc21 (stereo unspecified)	i	0.23	-0.6%
CC1(C)CC(=O)c2cc(C(=O)O)c(=O)n(-c3ccccc3)c2C1	i	·	-3.2%
O=C(Cc1ccccc1)Nc1cccc(-c2nc3ncccc3o2)c1	i	-0.17	5.7%
Cc1ccc(NC(=O)CCC(=O)O)cc1F	i	-0.15	5.9%
COc1ccc(OC)c(N(CC(=O)N2CCCC2)S(=O)(=O)c2ccc(OC)c(OC)c2)c1	i	-1.11	2.1%
COc1ccc(OC)c(C2NC(=O)c3sc(=S)n(-c4ccccc4)c3N2)c1 (stereo unspecified)	i	0.22	-3.3%
N#Cc1cccc(C(c2nnnn2Cc2ccccc2)N2CCCC2)c1 (stereo unspecified)	i	-0.38	-1.2%
O=C(CCCCCn1c(=S)[nH]c2ccc(Br)cc2c1=O)NCC1CCCO1 (stereo unspecified)	i	·	3.0%
CCc1nn2c(N3CCOCC3)cc(C)nc2c1-c1ccc(F)cc1	i	0.22	-0.9%
O=C(Nc1ccc2c(c1)OCCO2)c1ccncc1	i	0.84	5.6%
O=C1c2ccccc2C(=O)N1CC1c2ccccc2CCN1S(=O)(=O)c1cnc[nH]1 (stereo unspecified)	i	1.11	1.8%
COc1ccc(CCN2C(=O)CC(Sc3ncccc3C(=O)O)C2=O)cc1OC (stereo unspecified)	i	-0.32	-1.4%
Cc1nc(NC2=NCN(CCc3ccccc3)CN2)nc2c(C)cccc12	i	0.21	0.1%
CCN(CC)c1ccc(C(=O)c2ccccc2C(=O)O)c(O)c1	i	·	5.1%
CCCCN=C(C)c1c(O)c2ccccc2oc1=O	i	0.07	4.1%
